Source: PubChem (Broad Institute)
PD-1 reversal: activators reversing PD-1 mediated T-cell inhibition; primary human CD4 T cells, PD-L1 beads, CellTiter-Glo 96 h; activation, % (no concentration beside the values); 29,000 tested, under 10 active;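 active = replicate mean of 50% or more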;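 also: 0% = median vehicle wells and 100% = positive control; 100 nL library stock added to about 50 µL; numbers are from one replicate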
Shh pathway inh: Sonic Hedgehog pathway inhibition; Shh-LIGHT2 Gli-luciferase reporter, 30 h; inhibition, % (no concentration beside the values); hit rate 2.1% among 22,000; AID 2313;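 active = replicate mean of 65% or more; inconclusive = mean lower but half the replicates past it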;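 also: pathway switched on by Shh-conditioned medium diluted 1 in 25 in low serum; 100 nL library stock added to about 40 µL; 0% = median of neutral wells and 100% = positive control level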
MITF inh: MITF inhibition; hit rate 0.28% among 37,000; AID 2240; inhibition, % (concentration not given with the values); TRPM1 promoter luciferase, luminescence, 24 h;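 active = most replicates at 85% or more, or half of them and the mean; inconclusive = half reach 85% but not the mean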;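 also: human melanocyte line stably carrying TRPM1 promoter luciferase reporter; 0% = vehicle wells and 100% = a positive control; the first replicate is given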
YB-1 expr inh: YB-1 expression inhibition. U2OS, qRT-PCR YB-1 vs CDIP delta delta Cp, 16 h; active compounds read high; zero = DMSO, each unit about twofold. delta delta Cp (YB-1 minus CDIP) (concentration not given with the values). hit rate 0.37% among 30,000. AID 434959;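 active = delta delta Cp rounded down to an integer at or above 3, about 3 SD of DMSO wells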;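 also: higher means less YB-1 transcript or more CDIP transcript relative to DMSO; stock transfer was 100 nL into about 100 µL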
* marks the source's active call; other numbers are inactive results; ? = inconclusive; · = no result given; & = joins results of further samples. A portion of the library, so the mix of outcomes need not match the whole.

SMILES	PD-1 reversal	Shh pathway inh	MITF inh	YB-1 expr inh
C[C@@H]1CN([C@H](C)CO)C(=O)c2cccc(NC(=O)C3CCOCC3)c2O[C@H]1CN(C)Cc1ccc(C(=O)O)cc1	2.5	12.8	-4.7	-0.338
O=C(c1ccc(Cl)cc1)N(CCS(=O)(=O)c1ccc(Cl)cc1)Cc1cccs1	0.2	32.8	7.2	-0.34
CCN1CCC[C@H]1CNC(=O)c1c(OC)ccc(Br)c1OC	·	-47.4&-48.6	-4.9&-2.6	-0.0957&-0.163
COc1ccc(NC(=O)N(C)C[C@@H]2Oc3ccc(NS(=O)(=O)c4ccc(C)cc4)cc3C(=O)N([C@@H](C)CO)C[C@H]2C)cc1	2.3	·	-4.9	-0.131
COc1ccc(NC(=O)Nc2ccc3c(c2)C(=O)N([C@H](C)CO)C[C@H](C)[C@H](CN(C)C(=O)Nc2ccccc2)O3)cc1	·	-6.2	-2.6	-0.134
C[C@@H]1CN([C@H](C)CO)C(=O)c2cccc(NC(=O)Nc3cccc4ccccc34)c2O[C@H]1CN(C)C(=O)Nc1cccc2ccccc12	-1.6	17.6	48.9	-0.108
C[C@@H]1CN([C@H](C)CO)C(=O)Cc2cc(NS(=O)(=O)c3ccc(Cl)cc3)ccc2O[C@@H]1CN(C)S(=O)(=O)c1cn(C)cn1	1.5	3.7	-16.8	-0.271
Cc1ccc2nc(-c3ccc(NC(=O)CSc4nnc(C)s4)cc3)sc2c1	0.5	·	?	·
C[C@H](CO)N1C[C@H](C)[C@H](CN(C)S(=O)(=O)c2cn(C)cn2)Oc2ccc(N(C)C)cc2C1=O	0.8	3.4	-8.4	0.0572
Cc1noc(C)c1NC(=O)N(C)C[C@H]1OCCCC[C@@H](C)Oc2ccc(NC(=O)Nc3ccccc3)cc2C(=O)N([C@H](C)CO)C[C@@H]1C	0.6	·	-2.9	-0.0795
O=C(Nc1ccc(O)cc1)c1cc(S(=O)(=O)N2CCOCC2)c(Cl)cc1Cl	-6.0	·	-1.2	·
CNC[C@H]1Oc2c(cccc2N(C)C)C(=O)N([C@@H](C)CO)C[C@H]1C	2.0	7.6	2.0	-0.0692
Cc1ccc(S(=O)(=O)Nc2cccc3c2O[C@H](CN(C)Cc2ccc4c(c2)OCO4)[C@@H](C)CN([C@H](C)CO)C3=O)cc1	0.7	-23.4	-13.0	-0.3
COc1ccc(S(=O)(=O)Nc2ccc3c(c2)CC(=O)N([C@H](C)CO)C[C@@H](C)[C@H](CN(C)Cc2ccncc2)O3)cc1	·	-27.6	5.0	-0.184
Cc1cc(C)nc(SCC(=O)Nc2cc([N+](=O)[O-])ccc2C)n1	-0.3	·	19.4	·
CC(C)Cn1c(=O)n(C)c(=O)c2[nH]cnc21	2.9	-12.1	-26.3	0.2
C=C1C(=O)O[C@H]2[C@H]1[C@H](O)CC(=C)[C@@H]1CC(=O)C(C)[C@H]21 (stereo not given in full)	-7.2	-18.0	40.2	-0.134
CC(C)NC(=O)Nc1cccc2c1O[C@H](CN(C)CC1CC1)[C@@H](C)CN([C@@H](C)CO)C2=O	1.8	-21.0	-5.1	-0.0492
C[C@@H]1CCCCO[C@@H](CN(C)C(=O)CCC(F)(F)F)[C@@H](C)CN([C@H](C)CO)C(=O)c2cc(NC(=O)NC3CCCCC3)ccc2O1	·	-12.2	-16.7	-0.119
C[C@@H]1CN([C@@H](C)CO)C(=O)c2cccc(NC(=O)Nc3ccccc3)c2O[C@H]1CN(C)Cc1ccc(-c2ccccc2)cc1	-4.6	-13.3	26.3	0.128
Cc1noc(C)c1S(=O)(=O)Nc1ccc2c(c1)C(=O)N([C@H](C)CO)C[C@H](C)[C@@H](CN(C)Cc1ccc(C(=O)O)cc1)OCCCC[C@@H](C)O2	1.6	4.9	-7.7	0.16
C=CC(C)(C)c1c2c(c(O)c3c(=O)c4ccc(O)c(O)c4oc13)C=CC(C)(C)O2	·	93.1*	?	-0.118
C[C@H](CO)N1C[C@H](C)[C@@H](CN(C)S(=O)(=O)c2ccc(Cl)cc2)Oc2c(NC(=O)c3cnccn3)cccc2C1=O	-3.1	?	-9.5	-1.21
C[C@@H]1CN([C@@H](C)CO)C(=O)c2cccc(NS(=O)(=O)c3ccc(F)cc3)c2O[C@H]1CN(C)Cc1ccc(Oc2ccccc2)cc1	·	-18.0	42.8	0.607
C[C@@H]1CN([C@@H](C)CO)C(=O)c2cccc(NC(=O)c3cnccn3)c2O[C@H]1CN(C)Cc1ccncc1	1.2	-7.8	0.7	-1.13
C[C@H]1CN([C@@H](C)CO)C(=O)c2cccc(NS(=O)(=O)c3ccc(Cl)cc3)c2O[C@H]1CN(C)S(=O)(=O)c1ccccc1	·	18.8	-11.4	-0.253
C[C@H]1CN([C@@H](C)CO)C(=O)c2cc(N(C)C)ccc2O[C@@H]1CN(C)Cc1ccc(C(=O)O)cc1	0.7	-4.6	1.9	-0.00783
C[C@H](CO)N1C[C@H](C)[C@H](CN(C)Cc2ccc(C(F)(F)F)cc2)Oc2ccc(NS(=O)(=O)c3cccs3)cc2CC1=O	·	·	-0.3	-0.17
COc1ccc(S(=O)(=O)N(C)C[C@H]2Oc3c(NC(=O)C4CCOCC4)cccc3C(=O)N([C@@H](C)CO)C[C@H]2C)cc1	1.5	-47.4	-0.5	0.822
C[C@@H]1O[C@@H](O[C@H]2[C@H](O)[C@@H](O)[C@H](OC[C@H]3O[C@@H](OC(=O)[C@]45CCC(C)(C)CC4C4=CCC6[C@@]7(C)CC[C@H](O)C(C)(C)C7CC[C@@]6(C)[C@]4(C)CC5)[C@H](O)[C@@H](O)[C@@H]3O)O[C@@H]2CO)[C@H](O)[C@H](O)[C@H]1O (stereo not given in full)	-9.9	75.7*	44.5	1.56

Entries of single compounds, looked up by structure. Values in the order: PD-1 reversal, Shh pathway inh, MITF inh, YB-1 expr inh
`C[C@@H]1CN([C@H](C)CO)C(=O)c2cccc(NC(=O)Nc3cccc4ccccc34)c2O[C@H]1CN(C)C(=O)Nc1cccc2ccccc12` reads -1.6, 17.6, 48.9, -0.108
`C[C@H](CO)N1C[C@H](C)[C@@H](CN(C)S(=O)(=O)c2ccc(Cl)cc2)Oc2c(NC(=O)c3cnccn3)cccc2C1=O` reads -3.1, ?, -9.5, -1.21
`C[C@@H]1CN([C@@H](C)CO)C(=O)c2cccc(NC(=O)Nc3ccccc3)c2O[C@H]1CN(C)Cc1ccc(-c2ccccc2)cc1` reads -4.6, -13.3, 26.3, 0.128
`C[C@@H]1CN([C@@H](C)CO)C(=O)c2cccc(NC(=O)c3cnccn3)c2O[C@H]1CN(C)Cc1ccncc1` reads 1.2, -7.8, 0.7, -1.13
`C[C@H]1CN([C@@H](C)CO)C(=O)c2cccc(NS(=O)(=O)c3ccc(Cl)cc3)c2O[C@H]1CN(C)S(=O)(=O)c1ccccc1` reads ·, 18.8, -11.4, -0.253

Other results:
SMILES	PD-1 reversal	Shh pathway inh	MITF inh	YB-1 expr inh
COc1ccc(NC(=O)Nc2ccc3c(c2)CC(=O)N([C@H](C)CO)C[C@@H](C)[C@@H](CN(C)Cc2ccc4c(c2)OCO4)O3)cc1	0.0	·	1.5	0.415
C[C@H]1CN([C@@H](C)CO)C(=O)Cc2cc(NC(=O)Nc3cccc4ccccc34)ccc2O[C@@H]1CN(C)Cc1ccc(-c2ccccc2)cc1	-0.2	-28.2	2.8	0.64
COC(=O)Nc1nc2ccc(-c3n[nH]c(=O)c4ccccc34)cc2[nH]1	0.1	-16.1	-8.2	0.153
CCOc1ccccc1CN1CCN(Cc2cc(Br)ccc2O)CC1	-5.1	·	6.9	·
CC1(C)O[C@@H]2C[C@H]3[C@@H]4C[C@H](F)C5=CC(=O)CC[C@]5(C)[C@H]4[C@@H](O)C[C@]3(C)[C@]2(C(=O)CO)O1	-8.1	24.5	-32.8	-0.262
CCOC(=O)c1c(CN2CCOCC2)nc2c3ccccc3ccn12	-2.0	·	-17.7	·
CCn1c(SCC(=O)Nc2cccc(Br)c2)nnc1-c1ccncc1	-0.6	·	-0.7	·
Cc1noc(C)c1NC(=O)Nc1cccc2c1O[C@H](CN(C)Cc1ccc3c(c1)OCO3)[C@H](C)CN([C@H](C)CO)C2=O	1.5	-2.9	-19.2	-0.183
C[C@@H]1CCCCO[C@H](CN(C)S(=O)(=O)c2cccs2)[C@@H](C)CN([C@H](C)CO)C(=O)c2cc(NS(=O)(=O)c3ccccc3)ccc2O1	·	10.5	-12.3	-0.297
CC(=O)Nc1ccc(C(=O)CSc2nncn2C)cc1	1.2	·	-7.4	·
C[C@H]1CN([C@@H](C)CO)C(=O)Cc2cc(NC(=O)Cc3cn(C)c4ccccc34)ccc2O[C@@H]1CN(C)S(C)(=O)=O	·	-5.0	17.3	-0.29
COc1cc(NC(=S)NCCc2c[nH]c3ccccc23)c(OC)cc1Cl	-2.3	·	17.6	·
C[C@H](CO)N1C[C@H](C)[C@H](CN(C)Cc2ccc(C(=O)Nc3ccccc3N)cc2)Oc2ccc(NC(=O)C3CC3)cc2CC1=O	-5.1	·	2.2	-0.547
C/C(=N\N)c1c(-c2ccccc2)c2cc(Br)ccc2[nH]c1=O	-1.0	-4.8	-1.9	-0.265
C[C@H](CO)N1C[C@H](C)[C@@H](CN(C)C(=O)Nc2ccc(F)cc2)Oc2ccc(NC(=O)NC3CCCCC3)cc2C1=O	0.0	-6.2	-2.8	-0.247
CC1(CCO[C@H]2O[C@H](CO)[C@@H](O)[C@H](O)[C@H]2O)CCC2C(=CCC3[C@]2(C)CCC[C@@]3(C)C(=O)O)C1 (stereo not given in full)	-1.1	8.8	7.8	-0.379
C[C@@H]1CN([C@@H](C)CO)C(=O)c2cc(NC(=O)C3CC3)ccc2O[C@H]1CN(C)C	0.5	·	5.0	-0.225
CS(=O)(=O)Nc1ccc([N+](=O)[O-])cc1OC1CCCCC1	2.2	7.0	-1.7	-0.403
CC(C)NC(=O)Nc1ccc2c(c1)C(=O)N([C@H](C)CO)C[C@H](C)[C@@H](CN(C)CC1CCCCC1)OCCCC[C@@H](C)O2	·	-21.5	0.7	-0.109
CNC[C@H]1OCCCC[C@@H](C)Oc2ccc(NC(=O)NC3CCCCC3)cc2C(=O)N([C@H](C)CO)C[C@@H]1C	·	-24.4	-1.6	0.109
CC(C)(C)OC(=O)N[C@@H](Cc1ccccc1)c1n[nH]c(=S)o1	-0.8	-0.8	-2.6	-0.191
CC1=C(Cc2ccc(OC(=O)c3ccccc3)cc2)C(=O)C(C(C)C)CC1 (stereo not given)	-0.6	·	-0.2	-0.124
CC(C)(C)c1ccc(C(=O)N2CCCC2)cc1	2.0	-34.4	15.1	-0.599
C[C@H]1CN([C@@H](C)CO)C(=O)Cc2cc(NC(=O)C3CC3)ccc2O[C@@H]1CN(C)S(=O)(=O)c1ccc(F)cc1	·	-32.8	-1.3	-0.177
Cc1ccc(S(=O)(=O)Nc2ccc3c(c2)C(=O)N([C@@H](C)CO)C[C@H](C)[C@H](CN(C)Cc2ccncc2)O3)cc1	0.4	-15.0	6.4	-0.239
C[C@H]1CN([C@@H](C)CO)C(=O)c2cccc(NC(=O)Nc3cccc4ccccc34)c2O[C@H]1CN(C)Cc1ccc(C(F)(F)F)cc1	-2.3	16.7	14.3	0.408
C=CCN1C(=S)N[C@@H]2CS(=O)(=O)C[C@@H]21	0.3	-0.8	4.5	0.0303
Clc1ccc(CSc2nnc(-c3ccco3)n2Cc2ccco2)c(Cl)c1	0.4	·	17.5	·
C[C@H](CO)N1C[C@H](C)[C@@H](CN(C)Cc2ccncc2)Oc2c(NC(=O)Nc3ccc(F)cc3)cccc2C1=O	0.6	3.3	1.1	0.18
COc1cc(-c2ccc(=O)[nH]n2)ccc1OC(F)F	·	-46.9	-19.9	0.498
C[C@@H]1CCCCO[C@H](CN(C)C(=O)Nc2ccccc2)[C@@H](C)CN([C@H](C)CO)C(=O)c2cc(NC(=O)Nc3ccc4c(c3)OCO4)ccc2O1	·	-1.1	-3.0	-0.344
C[C@@H]1CN([C@@H](C)CO)C(=O)Cc2cc(NS(=O)(=O)c3ccc(F)cc3)ccc2O[C@@H]1CN(C)CC1CC1	0.1	4.7	-6.5	0.135
C[C@H](CO)N1C[C@H](C)[C@H](CN(C)S(=O)(=O)c2ccc(Cl)cc2)Oc2c(NS(=O)(=O)c3ccccc3)cccc2C1=O	1.8	-58.9	7.5	0.187
COc1ccc(CN(C)C[C@H]2Oc3ccc(NS(=O)(=O)c4ccccc4)cc3C(=O)N([C@@H](C)CO)C[C@H]2C)cc1	0.0	5.6	-2.9	0.168
CCN(CC)CCOc1ccc2nc(N(C)C)sc2c1	-0.6	-9.9	-23.9	1.3
Cc1noc(C)c1NC(=O)N(C)C[C@H]1Oc2ccc(NS(=O)(=O)c3cn(C)cn3)cc2C(=O)N([C@H](C)CO)C[C@H]1C	0.9	-15.3	1.5	-0.259
Cc1noc(C)c1NC(=O)Nc1cccc2c1O[C@@H](CN(C)C(=O)NC(C)C)[C@@H](C)CN([C@H](C)CO)C2=O	1.3	-108.9	3.5	·
CS(=O)(=O)N(CC(=O)Nc1cc(C(F)(F)F)ccc1Cl)c1cccc([N+](=O)[O-])c1	0.7	·	-4.6	·
CCC(=O)Nc1ccc(C(=O)Nc2cc(OC)ccc2NC(=O)c2ccco2)cc1	0.9	·	-6.7	·
